# Compound activity: PubChem BioAssay, Broad Institute
# FGF22 binding: FGF22 (human) thermal shift binding; Q9HCT0; recombinant FGF22 thermal shift, SYPRO orange fluorescence; percent of sucrose octasulfate shift, DMSO zero; calls only at 9.99 µM; 340,000 compounds, 1.5% hits; AID 651658;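 active = melting point raised past a set limit in the mean and every replicate; three in four hits are not shown here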
# Target sequence (Q9HCT0 whole entry, looked up): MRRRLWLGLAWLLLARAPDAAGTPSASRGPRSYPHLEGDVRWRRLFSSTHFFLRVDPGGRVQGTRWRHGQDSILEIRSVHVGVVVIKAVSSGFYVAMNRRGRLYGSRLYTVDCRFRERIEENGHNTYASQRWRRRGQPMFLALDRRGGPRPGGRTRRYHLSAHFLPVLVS
# rRNA inh HTS: inhibits bacterial ribosomal RNA function over humanized ribosomes; AID 720706; E. coli WT GFP vs humanized-ribosome RFP mutants, fluorescence, 24 h; active compounds read low; DMSO median 0, no signal -100; GFP signal change (wild-type ribosome), % (no concentration beside the values); 350,000 compounds, 1.6% hits;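 active = significant combined selectivity score with lowered wild-type GFP, culture density cut under 30%, mutant RFP and density less affected; inactive = any of these conditions unmet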; note: one replicate is shown; some compounds called inactive have numbers as strong as hits
# rRNA inh HTS OD600: second read-out of rRNA inh HTS, no call of its own (marks repeat the call); OD600 change, %; measured here: OD600 growth;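 optical density of the mix in the first replicate; 0 = DMSO median and -100 = no signal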
# rRNA inh HTS RFP: recorded beside rRNA inh HTS, whose call it bears; RFP signal change, %; measured here: RFP humanized mutant strains;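 first replicate; 0 = DMSO median and -100 = no signal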
# * hit, by the source's call; i = inactive; & = joins results of further samples. A portion of the library; the hit share may differ from the screen's.
No.	Structure	FGF22 binding	rRNA inh HTS	rRNA inh HTS OD600	rRNA inh HTS RFP
1	C[C@@H]1CN([C@H](C)CO)C(=O)c2cc(NC(=O)Nc3ccc(C(F)(F)F)cc3)ccc2O[C@@H](C)CCCCO[C@@H]1CN(C)C(=O)CCCN(C)C	i	-0.3	-15.7	6.2
2	COc1ccc(C#Cc2ccc3c(c2)[C@@H]2[C@@H](CCN2C(=O)c2ccncc2)[C@@H](CO)N3)cc1	i	-4.6	9.9	-0.5
3	Cc1noc(C)c1S(=O)(=O)N(C)C[C@H]1Oc2ccc(NC(=O)Nc3ccc(C(F)(F)F)cc3)cc2CC(=O)N([C@H](C)CO)C[C@H]1C	i	5.7	10.2	0.7
4	COc1ccccc1CNC(=O)C[C@@H]1CC[C@H]2[C@H](COc3ccc(NC(C)=O)cc3C(=O)N2C)O1	i	-0.1	3.4	-2.0
5	COc1ccc(NC(=O)Nc2ccc3c(c2)CC(=O)N([C@H](C)CO)C[C@@H](C)[C@H](CN(C)C(=O)Nc2ccc(C(F)(F)F)cc2)O3)cc1	i	-5.9	-7.6	3.4
6	CCC(=O)N1CC[C@H]2[C@H](CO)Nc3ccc(-c4ccc(OC)cc4)cc3[C@H]21	i	-3.0	-0.2	-8.3
7	OC(c1ccccc1)(c1ccccc1)C1CCN(CCCOc2ccc(-c3ccsc3)cc2)CC1	i	-53.5	-74.2	-15.2
8	C[C@H]1CN([C@@H](C)CO)C(=O)c2cc(NC(=O)Nc3ccc4c(c3)OCO4)ccc2O[C@H]1CN(C)C(=O)Nc1ccccc1	i	1.7	-1.5	1.6
9	COc1ccc(S(=O)(=O)Nc2ccc3c(c2)CC(=O)N([C@@H](C)CO)C[C@H](C)[C@H](CN(C)C(=O)Nc2ccc(F)cc2)O3)cc1	i	2.2	1.3	-1.9
10	COc1ccccc1CNC(=O)C[C@H]1CC[C@@H]2[C@H](COc3ccc(NC(C)=O)cc3C(=O)N2C)O1	i	3.5	10.6	-1.9
11	C[C@@H]1CCCCO[C@@H](CN(C)C(=O)c2ccncc2)[C@@H](C)CN([C@H](C)CO)C(=O)c2cc(NC(=O)CCC(F)(F)F)ccc2O1	i	2.8	11.5	-2.9
12	C[C@@H]1CN([C@@H](C)CO)C(=O)Cc2cc(NS(=O)(=O)c3cccs3)ccc2O[C@H]1CN(C)C(=O)Nc1cccc2ccccc12	i	5.8	12.4	-0.9
13	C[C@H](CO)N1C[C@H](C)[C@H](CN(C)Cc2ccc(Oc3ccccc3)cc2)Oc2ccc(NC(=O)Cc3cn(C)c4ccccc34)cc2CC1=O	i	-1.2	-2.2	2.2
14	C[C@@H]1CN([C@@H](C)CO)C(=O)Cc2cc(NS(=O)(=O)c3cccs3)ccc2O[C@@H]1CN(C)Cc1ccncc1	i	-5.9	-10.1	1.0
15	O=C(C[C@H]1CC[C@@H]2[C@H](COC[C@@H](O)CN2C(=O)Nc2ccc(Cl)cc2)O1)NCC1CCCCC1	i	-44.5	-65.9	0.5
16	COC(=O)C1=C(C)N(Cc2ccc(Cl)cc2)C(=S)NC1c1ccc(F)cc1 (centres undefined)	i	5.2	-1.7	3.2
17	C[C@@H]1CN([C@H](C)CO)C(=O)c2cc(NC(=O)Cc3ccccc3)ccc2O[C@@H](C)CCCCO[C@H]1CN(C)Cc1ccc(C(F)(F)F)cc1	i	3.9	-21.9	14.8
18	COCc1cc(N2CCN(C(=O)OC(C)(C)C)C[C@@H]2C)ccc1N1CCN(Cc2ccccc2)[C@@H](C)C1	i	-8.4	-7.5	1.6
19	O=C(C1CCCCC1)N1[C@@H]2CNc3ccccc3[C@@H]2[C@@H]1CO	i	-0.8	-1.3	-0.3
20	COCC(=O)Nc1ccc2c(c1)C(=O)N(C)[C@H]1CC[C@H](CC(=O)NCc3ccc(OC)cc3)O[C@@H]1CO2	i	1.9	-1.2	-0.9
21	CCCNC(=O)C[C@@H]1C[C@H]2c3cc(NS(=O)(=O)c4ccc(OC)cc4)ccc3O[C@H]2[C@H](CO)O1	i	-2.6	-10.8	-1.2
22	C[C@@H]1CN([C@@H](C)CO)C(=O)c2cccc(NC(=O)Nc3ccc(C(F)(F)F)cc3)c2O[C@H]1CN(C)C(=O)Nc1ccc2c(c1)OCO2	i	-4.4	0.6	2.2
23	COc1ccc(NC(=O)Nc2ccc3c(c2)CC(=O)N([C@@H](C)CO)C[C@H](C)[C@H](CN(C)Cc2ccc(Cl)c(Cl)c2)O3)cc1	i	0.1	3.7	0.4
24	O=C(NCCc1ccccc1Cl)[C@@H]1CCCN1C(=O)[C@H](Cc1cccnc1)NC(=O)N1CCOCC1	i	3.7	7.0	1.3
25	O=C(NC1CCCC1)[C@@H]1CCCN1C(=O)[C@@H](NC(=O)N1CCOCC1)C1CCCCC1	i	30.5	18.7	2.0
26	CC(C)C(=O)Nc1ccc2c(c1)C(=O)N(C)[C@@H]1CC[C@@H](CC(=O)N[C@H](C)c3ccccc3)O[C@@H]1CO2	i	3.1	3.1	-0.2
27	COc1ccc(NC(=O)Nc2ccc3c(c2)C(=O)N([C@H](C)CO)C[C@H](C)[C@H](CN(C)S(=O)(=O)c2ccc(OC)cc2)OCCCC[C@@H](C)O3)cc1	i	2.9	3.2	-2.0
28	O=C(/C=C(\Nc1ccc(F)cc1)c1ccccc1)c1ccccc1	i	-7.0	-9.6	2.6
29	CCNC(=O)Nc1ccc2c(c1)C(=O)N(C)[C@H]1CC[C@@H](CC(=O)NCC3CC3)O[C@@H]1CO2	i	3.8	0.2	-0.5
30	C[C@@H]1CN([C@H](C)CO)C(=O)Cc2cc(NC(=O)Nc3ccccc3)ccc2O[C@H]1CN(C)S(=O)(=O)c1ccc(Cl)cc1	i	-3.3	0.5	-0.6
31	O=C(C[C@@H]1C[C@@H]2c3cc(NC(=O)Nc4ccc(F)cc4)ccc3O[C@@H]2[C@@H](CO)O1)NC1CCCCC1	i	-2.4	-0.1	0.1
32	CC(C)C(=O)Nc1ccc2c(c1)C(=O)N(C)[C@H]1CC[C@H](CC(=O)NCCc3ccccc3)O[C@H]1CO2	i	-1.1	16.4	0.1
33	C[C@@H]1CN([C@@H](C)CO)C(=O)c2cc(NS(=O)(=O)c3ccc(F)cc3)ccc2O[C@@H](C)CCCCO[C@H]1CN(C)S(=O)(=O)c1ccc(F)cc1	i	-3.8	-1.6	-0.4
34	Cc1noc(C)c1NC(=O)Nc1ccc2c(c1)C(=O)N([C@@H](C)CO)C[C@H](C)[C@H](CN(C)Cc1ccc3c(c1)OCO3)OCCCC[C@H](C)O2	i	3.7	6.9	2.3
35	CN1CCN(C(=O)C[C@H]2C[C@H]3c4cc(NC(=O)Nc5ccccc5F)ccc4O[C@H]3[C@H](CO)O2)CC1	i	-1.5	4.0	-1.4
36	C[C@@H]1CN([C@@H](C)CO)C(=O)c2cccc(NC(=O)Nc3ccc4c(c3)OCO4)c2O[C@@H]1CN(C)C(=O)Nc1ccccc1	i	4.7	17.5	-0.8
37	Cc1noc(C)c1S(=O)(=O)Nc1ccc2c(c1)C(=O)N([C@H](C)CO)C[C@H](C)[C@@H](CN(C)S(=O)(=O)c1cccs1)OCCCC[C@H](C)O2	i	-5.6	8.6	3.9
38	CCNC(=O)C[C@@H]1CC[C@H]2[C@@H](COC[C@@H](O)CN2Cc2ccncc2)O1	i	1.9	9.5	-3.2
39	O=C(O)[C@@H]1[C@@H](CO)[C@@H]2Cn3c(ccc(C4=CCCCC4)c3=O)[C@@H]2N1C(=O)c1ccccc1F	i	1.2	1.2	-1.5
40	NCc1ccc(OCCCN2CCC(C(O)(C3=CCCC3)c3ccccc3)CC2)cc1 (centres undefined)	i	2.0	13.8	-1.7
41	CN(C)CC(=O)N1[C@H](C(=O)NC2CCC2)[C@@H](CO)[C@@H]2Cn3c(ccc(-c4cccc(F)c4)c3=O)[C@@H]21	i	-1.0	-1.6	1.2
42	C[C@H]1CN([C@@H](C)CO)C(=O)Cc2cc(NC(=O)CCC(F)(F)F)ccc2O[C@@H]1CN(C)S(=O)(=O)c1cn(C)cn1	i	-0.4	-1.0	-2.2
43	CC(=O)C1=C(C)N(Cc2ccccc2)C(=S)NC1c1cccc(Br)c1 (centres undefined)	i	-17.2	-6.1	-3.6
44	CN(C)C(=O)[C@H]1[C@H](CO)[C@H]2Cn3c(ccc(-c4ccccc4F)c3=O)[C@H]2N1C(=O)C1CC1	i	2.9	3.5	-2.5
45	Cc1noc(C)c1S(=O)(=O)Nc1ccc2c(c1)CC(=O)N([C@@H](C)CO)C[C@H](C)[C@@H](CN(C)Cc1ccc(Oc3ccccc3)cc1)O2	i	1.3	-2.1	0.8
46	C[C@@H]1CCCCO[C@H](CN(C)Cc2ccc(C(F)(F)F)cc2)[C@H](C)CN([C@H](C)CO)C(=O)c2cc(NC(=O)Nc3ccc(C(F)(F)F)cc3)ccc2O1	i	4.3	5.8	2.8
47	C[C@H]1CCCCO[C@@H](CN(C)C(=O)Nc2ccc3c(c2)OCO3)[C@@H](C)CN([C@@H](C)CO)C(=O)c2cc(NC(=O)NC3CCCCC3)ccc2O1	i	1.1	2.4	0.8
48	C[C@H]1CCCCO[C@H](CN(C)C(=O)Cc2ccccc2)[C@@H](C)CN([C@@H](C)CO)C(=O)c2cc(NC(=O)NC3CCCCC3)ccc2O1	i	-1.8	-11.0	1.5
49	C[C@@H]1CCCCO[C@@H](CN(C)C(=O)Nc2cccc3ccccc23)[C@H](C)CN([C@@H](C)CO)C(=O)c2cc(NS(=O)(=O)c3cn(C)cn3)ccc2O1	i	-1.4	-23.2	-1.4
50	COc1cccc(-c2cccc3c4c([nH]c23)[C@@H]2C[C@H]3[C@@H](C(=O)N2CC4)[C@H](C)ON3C)c1	i	-27.4	-60.7	-1.0

# The closing 7 records of the section before are carried over, then new ones follow:
No.	Structure	FGF22 binding	rRNA inh HTS	rRNA inh HTS OD600	rRNA inh HTS RFP
44	CN(C)C(=O)[C@H]1[C@H](CO)[C@H]2Cn3c(ccc(-c4ccccc4F)c3=O)[C@H]2N1C(=O)C1CC1	i	2.9	3.5	-2.5
45	Cc1noc(C)c1S(=O)(=O)Nc1ccc2c(c1)CC(=O)N([C@@H](C)CO)C[C@H](C)[C@@H](CN(C)Cc1ccc(Oc3ccccc3)cc1)O2	i	1.3	-2.1	0.8
46	C[C@@H]1CCCCO[C@H](CN(C)Cc2ccc(C(F)(F)F)cc2)[C@H](C)CN([C@H](C)CO)C(=O)c2cc(NC(=O)Nc3ccc(C(F)(F)F)cc3)ccc2O1	i	4.3	5.8	2.8
47	C[C@H]1CCCCO[C@@H](CN(C)C(=O)Nc2ccc3c(c2)OCO3)[C@@H](C)CN([C@@H](C)CO)C(=O)c2cc(NC(=O)NC3CCCCC3)ccc2O1	i	1.1	2.4	0.8
48	C[C@H]1CCCCO[C@H](CN(C)C(=O)Cc2ccccc2)[C@@H](C)CN([C@@H](C)CO)C(=O)c2cc(NC(=O)NC3CCCCC3)ccc2O1	i	-1.8	-11.0	1.5
49	C[C@@H]1CCCCO[C@@H](CN(C)C(=O)Nc2cccc3ccccc23)[C@H](C)CN([C@@H](C)CO)C(=O)c2cc(NS(=O)(=O)c3cn(C)cn3)ccc2O1	i	-1.4	-23.2	-1.4
50	COc1cccc(-c2cccc3c4c([nH]c23)[C@@H]2C[C@H]3[C@@H](C(=O)N2CC4)[C@H](C)ON3C)c1	i	-27.4	-60.7	-1.0
51	C[C@@H]1CCCCO[C@H](CN(C)S(=O)(=O)c2ccc(Cl)cc2)[C@H](C)CN([C@@H](C)CO)C(=O)c2cc(NS(=O)(=O)c3ccc(Cl)cc3)ccc2O1	i	1.8	3.2	-1.3
52	Cc1noc(C)c1S(=O)(=O)N(C)C[C@@H]1Oc2ccc(NC(=O)Nc3ccc(C(F)(F)F)cc3)cc2CC(=O)N([C@@H](C)CO)C[C@H]1C	i	-0.2	12.5	1.4
53	CC(C)NC(=O)N(C)C[C@@H]1Oc2c(NC(=O)Nc3ccc4c(c3)OCO4)cccc2C(=O)N([C@@H](C)CO)C[C@H]1C	i	1.7	0.0	0.9
54	Cc1noc(C)c1NC(=O)N(C)C[C@@H]1Oc2ccc(NC(=O)Cn3cnnn3)cc2CC(=O)N([C@@H](C)CO)C[C@@H]1C	i	2.2	3.2	-1.5
55	C[C@@H]1CCCCO[C@@H](CN(C)C(=O)Cc2ccccc2)[C@H](C)CN([C@@H](C)CO)C(=O)c2cc(NC(=O)C3CCCCC3)ccc2O1	i	-0.3	-12.2	0.3
56	O=C(C[C@H]1CC[C@@H]2[C@H](COC[C@H](O)CN2Cc2nccs2)O1)N1CCC(Cc2ccccc2)CC1	i	3.1	-15.0	-5.3
57	O=C(C[C@H]1C[C@@H]2c3cc(NC(=O)Nc4ccc(F)cc4)ccc3O[C@@H]2[C@@H](CO)O1)NC1CCCCC1	i	-14.4	-48.0	18.6
58	COc1ccc(-c2ccc3c(c2)[C@@H]2[C@@H](CCN2C(=O)Cc2ccccn2)[C@H](CO)N3C)cc1	i	-1.2	0.5	0.6
59	O=C(c1ccc2c(c1)OCO2)N1C[C@@H]2N[C@H](C1)C2c1ccc(/C=C/c2ccccc2)cc1 (some centres undefined)	i	-56.9&-56.5	-75.5&-79.2	-15.3&-17.4
60	C[C@@H]1CN([C@H](C)CO)C(=O)c2cc(NC(=O)Cc3ccccc3)ccc2O[C@@H](C)CCCCO[C@@H]1CN(C)Cc1ccc2c(c1)OCO2	i	3.4	-3.6	7.3
61	Cc1cc(N2CCN(C(C(=O)NC3CCCC3)c3ccc(F)cc3)CC2)c2ccccc2n1 (centres undefined)	i	9.6	4.1	3.7
